# Bioassay records from PubChem BioAssay.
# TAR Tat displ: HIV-1 TAR-Tat binding disruption; HIV-1 TAR RNA, Tat peptide displacement FRET; active compounds read high; z-score (no concentration beside the values); actives 0.6% (n = 100,000);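 further: score is relative to mean and SD of negative controls; some compounds called inactive have numbers as strong as hits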
# CDC25B CDK2 inh: human CDC25B-CDK2/CyclinA binding inhibition; actives 0.72% (n = 94,000); AID 1259370; z-score (concentration not given with the values); HTRF CDC25B-CDK2/CyclinA binding, anti-His/anti-Flag; active compounds read high; P30305+P24941;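 further: score is relative to mean and SD of negative controls; strong numbers were not always called active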
# * hit, by the source's call; . = no result given; & = joins results of further samples.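 How the source made its calls: active means z-score from 3 up in half or more of its runs; inactive means the rest.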 Compounds were not picked by outcome; 0.87% or so of the library scored in one or more.
SMILES,TAR Tat displ,CDC25B CDK2 inh
Cc1ncc(-c2ccc(S(=O)(=O)NC3CC3)cc2)o1,1.28,.
O=C(NCc1cccnc1)c1cnn2c3c(cnc12)CCCC3,0.23,.
CN1CCc2c(sc3c2C(=O)NC(c2ccc(Br)cc2)N3)C1 (stereo not drawn),-12.7,-0.94
CC(=O)N1c2ccc(S(=O)(=O)N3CCCCC3)cc2CC1C(=O)N1CCN(c2ncccn2)CC1 (stereo not drawn),2.01,.
CS(=O)(=O)c1ccc2nc(NC(=O)NC3(C(F)(F)F)Oc4ccccc4O3)sc2c1,.,1.68
COc1ccc(-c2cc(C(=O)O)c3c(-c4ccc(Br)cc4)[nH]nc3n2)c(OC)c1,2.04,.
O=C(NC1CCN(Cc2ccccc2)CC1)c1cccs1,.,-2.71
COc1ccc(C2=NN(CC(=O)NCc3cccnc3)C(=O)CC2)cc1,.,0.11
COc1ccc(-c2c3c(nc4c2c(=O)n(C)c(=O)n4C)-c2ccccc2CC3)c(Cl)c1OC,.,-0.8
COc1ccc(OC)c(S(=O)(=O)Nc2cccc(-c3ccc(N4CCOCC4)nn3)c2)c1,0.79,.
COCCn1c2c(c(=O)[nH]c1=O)C(c1ccc(SC)cc1)C1=C(N2)c2ccccc2C1=O (stereo not drawn),-1.54,-2.45
O=C(c1c[nH]c2ccccc2c1=O)N1CCSCC1,0.49,1.36
COc1ccc(S(=O)(=O)N2CCSC2c2ccccc2OC)cc1 (stereo not drawn),-0.16,-2.15
O=C(O)c1ccc2nc(-c3ccc(O)cc3)sc2c1,2.47,-0.12
COc1ccc(N2CCN(c3nc(N4CCCC4)nc(N4CCCC4)n3)CC2)cc1,.,-0.71
COc1nccn(-c2cccc(F)c2)c1=O,-0.77,-2.21
CCn1nc(C)c(CCNS(=O)(=O)c2c(C)noc2C)c1C,2.67,.
O=c1c2c(-c3ccccc3)csc2ncn1CCCN1CCOCC1,0.73,-0.56
CCOC(=O)Cc1csc(NS(=O)(=O)c2ccc(Cl)cc2)n1,0.12,-2.84
Cn1c2c(c(=O)n(C)c1=O)CN(CC1CCN(Cc3ccccc3)CC1)CN2,0.57,-1.89
COc1ccc(OC)c(NS(=O)(=O)c2ccc(OC)c(OC)c2)c1,0.67,0.06
O=S1(=O)C[C@H](NCc2ccc(Cl)cc2)[C@@H](S(=O)(=O)c2ccc(F)cc2)C1,-0.12,0.02
CCCCNc1nc2c(S(=O)(=O)c3ccccc3)nnn2c2ccccc12,-0.18,-1.37
Cc1ccccc1Cn1c(=O)c2c(nc3n2CCN3Cc2ccco2)n(C)c1=O,2.36,.
CCc1cc(Sc2ccccc2N)n2nc(C)nc2n1,-2.23,.
COc1cc(CNC(=O)CCCC/C=C/C(C)C)ccc1O,-0.26&2.92,.
CCOC(=O)C1CCCN(C(=O)c2ccc(CS(=O)(=O)c3ccc(Br)cc3)o2)C1 (stereo not drawn),1.22,-1.65
COc1ccc(-c2nc(N(CCCN3CCOCC3)Cc3ccco3)c3ccccc3n2)cc1,0.61,.
Cn1c(=O)n(C)c2cc(S(=O)(=O)N3CCN(c4ccccc4)CC3)ccc21,-1.08,-1.56
O=S(=O)(c1ccc(Cl)cc1)c1nc(Cc2ccccc2)oc1N1CCOCC1,1.96,-2.37
CCCn1nnc2c3nsnc3ccc21,-0.55,-3.17
Cc1[nH]c(=O)c(C#N)c2c1COC(C)(C)C2,-0.95,-2.13
O=C(CCSCc1cnn(-c2ccccc2)c1-n1cccc1)N1CCN(c2ccccc2)CC1,-0.88,-2.55
CCOc1cc(C2CC(=O)Nc3c2c(C)nn3-c2nncc(-c3ccc(C)cc3)n2)ccc1O (stereo not drawn),2.62,2.91
CCN(CC)CCNC(=O)CSc1ncnc2c1sc1cccc(F)c12,0.22,.
CC(NS(=O)(=O)c1ccccc1)C(c1cccs1)N1CCN(C)CC1 (stereo not drawn),.,-1.98
COc1c(C(=O)O)sc(C(=O)O)c1OC,.,-1.11
CC(C)CN1CCc2nc(Nc3ccc4c(c3)OCO4)ncc2C1,0.79,.
CC(=O)N1CCc2cc(S(=O)(=O)C(C)CC(=O)N3CCN(c4ccccc4)CC3)ccc21 (stereo not drawn),1.5,.
COc1ccc(-c2nc(C(N)=O)c3[nH]c(=O)n(CC4CCCO4)c3n2)cc1OC (stereo not drawn),1.35,.
CCn1ncc(C2=NOC(C(=O)Nc3ccc(F)c(Cl)c3)C2)c1C (stereo not drawn),1.67,-1.33
CN1CCN(C(=O)C2CCN(c3nnc(N4CCCCC4=O)s3)CC2)CC1,1.67,.
Cn1nc(-c2ccccc2)c(-c2ccccc2)c(C(=O)Nc2nccs2)c1=O,2.77,-2.06
Cc1ccc(-c2nc3ccccc3o2)cc1N,-0.26,-1.78
O=C(NNC(=O)c1ccc([N+](=O)[O-])o1)c1ccc2ccccc2c1,.,0.4
O=C(NCCC1=CCCCC1)NC1COc2ccccc2C1 (stereo not drawn),2,.
CC(=O)Nc1nnc(SCc2cc(=O)n3nc(C4CC4)sc3n2)s1,0.58,.
Cc1ccc(N2C(=O)N(Cc3cc(C)ccc3C)C3CS(=O)(=O)CC32)cc1 (stereo not drawn),0.03,-1.33
FC(F)(F)c1nc2ccccc2n1CCOc1ccccc1,0.16,-0.08
O=C(CSc1nnc(-c2ccccc2O)o1)c1ccccc1,0.99,-3.46
CCCNc1nc(C(=O)OCC)nc2ccccc12,1.53,.
Cc1ccc2[nH]cc(NC(=O)NCCS(C)=O)c(=O)c2c1 (stereo not drawn),-0.1,-0.25
CCOC(=O)c1c(NC(=O)Cn2cnc3nc(SCC)ncc3c2=O)sc(C)c1C,1.31,.
O=C1c2oc3ccc(Cl)cc3c(=O)c2C(c2ccccc2)N1CCCN1CCOCC1 (stereo not drawn),0.92,-1.4
CCOC(=O)C(C)Sc1ccc2nnc(-c3ccc(F)cc3)n2n1 (stereo not drawn),.,-2.35
CCOC(=O)C1=C(C)NC2=C(C(=O)C(C(=O)OC)C(C)C2)C1c1ccc2ccccc2c1 (stereo not drawn),-0.42,-1.42
CCC1CCCCN1CCNS(=O)(=O)c1ccc2c(c1)oc(=O)n2C (stereo not drawn),.,-0.59
COc1cccc(C2N3CC4(C)CN2CC(C)(C3)C4O)c1O (stereo not drawn),0.25,-1.74
O=C(Nc1ccc(Br)cn1)c1ccc([N+](=O)[O-])o1,-0.04,-1.06
O=C(O)COc1ccc(-c2nnc(-c3ccco3)o2)cc1,0.64,-0.81
# Further structures.
SMILES,TAR Tat displ,CDC25B CDK2 inh
CCCCc1nn2c(=O)cc(COC(C)=O)nc2s1,0.1,.
CC1CCN(C(=O)C(Cc2ccccc2)NS(=O)(=O)c2ccc3c(c2)CCC(=O)N3)CC1 (stereo not drawn),.,-1.85
c1ccc(-c2nc3c4ccccc4nc(NCc4ccccn4)n3n2)cc1,-0.09,-0.36
CCN1CCN(C2=NS(=O)(=O)C(c3ccc(OC)cc3)=C2C)CC1,-0.02,-2.35
NC(=O)C1CCN(C(=O)C2CC(c3ccccc3Cl)=NO2)CC1 (stereo not drawn),-0.13,-1.66
CC1CC(C)(C)NC(=S)N1CCC(=O)Nc1ccc2c(c1)OCCO2 (stereo not drawn),.,-0.82
O=C(c1ccccc1)c1ccc2nc(NCc3ccc(F)cc3)c3nncn3c2c1,0.41,-3.42
O=C(CSc1ccc2nnc(-c3ccc(Cl)cc3)n2n1)Nc1ccc2c(c1)OCO2,.,-4.5
NC(=O)C1CCN(CC(O)c2ccccc2)CC1 (stereo not drawn),.,-1.51
Cc1ccc(S(=O)(=O)Nc2ccc(-c3cn4cccc(C)c4n3)cc2)cc1C,-0.89,-0.07
CCOC(=O)c1cc(S(=O)(=O)N2CCN(C3CCCCC3)CC2)[nH]n1,1.86,.
O=c1[nH]c(-c2ccccc2Cl)nc(=S)[nH]1,.,-1.72
COC(=O)c1cc(COc2cc3oc(=O)cc(-c4ccccc4)c3cc2Cl)c(C)o1,.,-1.21
CC(C)Cn1c(CN2CCN(c3ccc(F)cc3)CC2)nc2c1c(=O)n(C)c(=O)n2C,1.66,-1.61
O=C1c2cccnc2C(=O)N1Cc1ccc(S(=O)(=O)N2CCN(C3CCCCC3)CC2)cc1,0.57,.
C=CCSc1nnc(NC(=O)c2cc(=O)c3ccc(C)cc3o2)s1,0.35,0.48
COc1ccc(C(=O)CSc2ccc3nnc(-c4cccc(F)c4)n3n2)cc1,.,-2.55
Fc1ccc2[nH]c(-c3cccs3)cc2c1,0.3,-1.64
CCc1nc(SCc2cc(=O)n3nc(CC(C)C)sc3n2)n[nH]1,-0.13,.
O=S1(=O)CCCCN1S(=O)(=O)c1ccccc1,.,0.04
CCCc1ccc(S(=O)(=O)N2c3ccccc3NC3=C(C(=O)CCC3)C2c2ccco2)cc1 (stereo not drawn),-0.28,.
CN(C)CCN(C(=O)C1CCCCC1)c1nc2c(F)cc(F)cc2s1,1.29,.
COc1ccc(Oc2coc3c(CN(C)C)c(O)ccc3c2=O)cc1,0.8,-1.21
Cc1cc(F)ccc1NC(=O)CCS(=O)(=O)c1ccc2c(c1)CC(C)N2C(=O)C1CC1 (stereo not drawn),0.79,.

# Some of the entries above, reformatted:
# Value order – TAR Tat displ | CDC25B CDK2 inh
> O=C(CSc1ccc2nnc(-c3ccc(Cl)cc3)n2n1)Nc1ccc2c(c1)OCO2
 : . | -4.5
> NC(=O)C1CCN(CC(O)c2ccccc2)CC1 (stereo not drawn)
 : . | -1.51
> Cc1ccc(S(=O)(=O)Nc2ccc(-c3cn4cccc(C)c4n3)cc2)cc1C
 : -0.89 | -0.07
> CCOC(=O)c1cc(S(=O)(=O)N2CCN(C3CCCCC3)CC2)[nH]n1
 : 1.86 | .
> O=c1[nH]c(-c2ccccc2Cl)nc(=S)[nH]1
 : . | -1.72
> COC(=O)c1cc(COc2cc3oc(=O)cc(-c4ccccc4)c3cc2Cl)c(C)o1
 : . | -1.21
> CC(C)Cn1c(CN2CCN(c3ccc(F)cc3)CC2)nc2c1c(=O)n(C)c(=O)n2C
 : 1.66 | -1.61
> O=C1c2cccnc2C(=O)N1Cc1ccc(S(=O)(=O)N2CCN(C3CCCCC3)CC2)cc1
 : 0.57 | .
> C=CCSc1nnc(NC(=O)c2cc(=O)c3ccc(C)cc3o2)s1
 : 0.35 | 0.48
> COc1ccc(C(=O)CSc2ccc3nnc(-c4cccc(F)c4)n3n2)cc1
 : . | -2.55
> Fc1ccc2[nH]c(-c3cccs3)cc2c1
 : 0.3 | -1.64
> CCc1nc(SCc2cc(=O)n3nc(CC(C)C)sc3n2)n[nH]1
 : -0.13 | .
> O=S1(=O)CCCCN1S(=O)(=O)c1ccccc1
 : . | 0.04
> CCCc1ccc(S(=O)(=O)N2c3ccccc3NC3=C(C(=O)CCC3)C2c2ccco2)cc1 (stereo not drawn)
 : -0.28 | .
> CN(C)CCN(C(=O)C1CCCCC1)c1nc2c(F)cc(F)cc2s1
 : 1.29 | .
> COc1ccc(Oc2coc3c(CN(C)C)c(O)ccc3c2=O)cc1
 : 0.8 | -1.21
> Cc1cc(F)ccc1NC(=O)CCS(=O)(=O)c1ccc2c(c1)CC(C)N2C(=O)C1CC1 (stereo not drawn)
 : 0.79 | .

# Later entries.
SMILES,TAR Tat displ,CDC25B CDK2 inh
CCC1CN(CC(=O)N2CCOCC2)c2ccccc2S1 (stereo not drawn),1.16,.
O=C(C1CCN(S(=O)(=O)c2cccnc2)CC1)N1CCOCC1,1.57,.
CC(NC(=O)C1CCCN1c1nnc(N2CCCC2=O)s1)c1ccc2c(c1)OCCO2 (stereo not drawn),3.22,1.53
Cn1ncc2c(Nc3ccccc3)nc(N3CCCC3)nc21,2.33,.
CCN(CC)CCCNC(=O)C1=C(C)C(=O)OC12CCN(S(C)(=O)=O)CC2,0.28,.
CCOc1ccc(OCC)c(Nc2c(-c3ccc(C(C)C)cc3)c(=O)c2=O)c1,2.24,.
Cn1c(=O)c2c(nc(NCc3ccco3)n2Cc2ccc(Cl)cc2)n(C)c1=O,0.63,-1.77
CCCCC1(COC(=O)CCC(=O)O)C(=O)N(c2ccccc2)N(c2ccccc2)C1=O,1.81,.
CCCSCCCN1C(=O)c2cc3sccc3n2CC1(C)C(=O)NC1CCCCC1 (stereo not drawn),2.23,-1.38
CC(C)c1ccc(-c2c(NCc3cccs3)c(=O)c2=O)cc1,1.86,.
CC(=O)Oc1ccc(OC(C)=O)c2c1[C@@H]1C=C[C@H]2CC1,.,-0.66
CC(C)(C)C(O)CSc1nc2ccccc2[nH]1 (stereo not drawn),-1.37,-1.19
O=C(Nc1nc(-c2ccccc2)cs1)c1ccco1,.,-0.99
O=C(O)CSc1nnc(COc2ccc(Br)cc2)n1-c1ccccc1,0.5,-0.91
Cc1ccc(S(=O)(=O)Nc2ccc(O)c(C3=C(N4CCOCC4)/C(=C/c4ccccc4)CC3)c2)cc1,.,-1.05
Cn1c(C2CC(=O)N(Cc3ccc(F)cc3)C2)nc2ccccc21 (stereo not drawn),1.93,-1.56
Cc1nnc(SCc2cc(Br)cc(Br)c2)[nH]c1=O,.,-1.69
Nc1cc(Cl)c(NC2=NCCN2)c(Cl)c1,.,-1.19
CCOC(=O)N1CCN(C(=O)Cn2ncn3nc(-c4cccs4)cc3c2=O)CC1,-0.47,-1.89
O=S(=O)(c1ccc(Cl)cc1)N(Cc1cc(CN2CCOCC2)cs1)c1cccc(F)c1,-0.29,.
O=C(NCc1ccc(F)cc1)c1nn2c(c1Cl)NC(c1cccs1)CC2C(F)(F)F (stereo not drawn),2.01,1.56
COc1cccc2c1OC(c1ccc(O)cc1)N1N=C(c3ccccc3O)CC21 (stereo not drawn),-0.52,1.11
CCc1cc2c(cc3c(=O)n(CC(=O)NCCCN4CC(C)CC(C)C4)nc(CC)n32)s1 (stereo not drawn),-0.75,-1.19
CCOC(=O)C(=CNc1cc(OC)ccc1-n1cccc1)C(=O)OCC,.,-2.07
O=C(Cc1csc2ccccc12)NCc1ccc2c(c1)OCO2,-0.71,0.21
Cc1noc2ncnc(NCCCN3CCN(c4ccc(F)cc4)CC3)c12,0.85,.
Cc1cc(NC(=O)Cn2nc(C(F)(F)F)c3c2CCC3)n(-c2ccccc2)n1,0.75,0.9
COc1ccc2[nH]c(=O)c(CN(c3ccccc3OC)S(=O)(=O)c3ccccc3)cc2c1,2.31,-9.75
